Screening data as filed in PubChem BioAssay.
Sfp inh: blocks B. subtilis Sfp PPTase activity; 310,000 tested, 3.5% active; Q9F4F7; Potency, µM, without a hit: max response, negative = inhibition, actives largely listed as inhibitors; Biochemical Sfp PPTase activity, qHTS; active means well fitted inhibition curve with a large enough effect; inconclusive means small, poorly fitted or top-dose-only effect, or another doubt; inactive means no such curve, though single readings can be large or run the other way;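 further: the enzyme is Sfp with the accession as filed and its product quenches rhodamine fluorescence; potency means the concentration at half of the fitted maximal effect; 0% = enzyme reaction without inhibitor and -100% = no enzyme wells; top concentration of the series not given in the record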
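Fluorescence-quenching assay with 15 nM Sfp, 5 uM rhodamine-CoA and 12.5 uM BHQ-2-labelled ybbR peptide in pH 7.6 Hepes/MgCl2 buffer. Enzyme was pre-incubated with compound for 15 min at room temperature. Rate was taken from the 30-min fluorescence change (525/598 nm).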
TRPV1 potentiator: potentiators of human vanilloid receptor 1 (TRPV1); Q8NER1; potentiation, % at 8.33 µM; TRPV1-expressing cells, Fluo-8 calcium influx, capsaicin EC20 potentiation; host cell line not named in the record; control for the full effect not named in the record; 320,000 tested, 0.02% active; AID 540277; active means potentiation above 80%; inconclusive means 30% to 80%; inactive means below 30%; further: 0% is about no effect
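TRPV1-expressing cells were cultured overnight at 35.5C and loaded with Fluo-8 calcium dye for 40 to 90 min at room temperature. After a 10 s baseline, compound was added and calcium influx was read kinetically for 3 min (ex 480/em 520 nm).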
gsp antag: gsp mutant antagonism | AID 624288 | Potency, µM (titrated, usually from 76.9 µM), for the others: at the highest dose activity change, negative = inhibition, hits mostly inhibitors | 340,000 tested, 0.4% active | gsp-mutant cells, cAMP HTRF, 30 min; control for the full effect not named in the record; active = falling curve of any shape with a large fitted effect; inconclusive = falling curve, mostly with a smaller effect; inactive = flat or rising curve; cell line not stated here;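 further: intracellular cAMP measured with PDE inhibitor Ro 20-1724 present during compound exposure; potency means the concentration at half of the fitted maximal effect; on the % scale 0 is the no-effect control and ±100 the full control effect; nearly all actives have a fitted effect of over 65% in size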
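Cells, 2000/well, grown 16–24 h in DMEM 10% FBS with 0.5 mg/ml G418, then compounds plus […] (300 uM addition stock), 30 min at 37C. cAMP read by HTRF (cAMP-d2 and anti-cAMP antibody-K in lysis buffer) after 30 min RT.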
TRPML1 blocker: blocks the human TRPML1 channel | Q9GZU1 | TRPML1-inducible cells, Ca2+ dye fluorescence, FDSS; hits give low values; inhibition of EC80 agonist-evoked calcium signal | activity change, negative = inhibition, % (no concentration beside the values) | 390,000 tested, 0.02% active | AID 624415; in the data active means activity change below about -50%; inconclusive means about -30% to -50%; inactive means above about -30%;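 further: stimulus is agonist 54-4 at its EC80 concentration; on the % scale 0 is the no-effect control and ±100 the full control effect; compound concentration not given in the record; the text of the record puts the active cut at -80%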
Target sequence (Q9GZU1 whole entry, looked up): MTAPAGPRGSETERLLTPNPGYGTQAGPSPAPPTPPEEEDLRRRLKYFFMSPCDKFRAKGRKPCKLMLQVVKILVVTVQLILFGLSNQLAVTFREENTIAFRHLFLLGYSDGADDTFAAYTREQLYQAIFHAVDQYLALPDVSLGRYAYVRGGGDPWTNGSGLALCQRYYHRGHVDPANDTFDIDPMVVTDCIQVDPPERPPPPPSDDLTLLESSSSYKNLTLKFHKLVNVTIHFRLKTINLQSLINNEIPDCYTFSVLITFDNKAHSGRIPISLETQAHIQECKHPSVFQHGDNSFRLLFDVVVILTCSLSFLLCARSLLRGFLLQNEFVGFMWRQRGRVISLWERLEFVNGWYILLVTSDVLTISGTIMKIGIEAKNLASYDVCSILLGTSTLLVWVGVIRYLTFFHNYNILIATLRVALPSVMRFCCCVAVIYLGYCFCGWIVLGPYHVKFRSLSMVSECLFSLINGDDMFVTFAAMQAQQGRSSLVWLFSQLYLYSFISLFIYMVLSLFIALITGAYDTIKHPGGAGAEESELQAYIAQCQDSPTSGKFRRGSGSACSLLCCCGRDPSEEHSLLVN
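Tet-induced TRPML1-DL cells loaded with Ca8 no-wash calcium dye were read kinetically on FDSS. Compound addition was followed by EC80 agonist 54-4 (4 uM final); inhibition was read over 110 s.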
ClpP mod: qHTS Assay for Activators of ClpP | ATP-dependent Clp protease proteolytic subunit (Bacillus subtilis (strain 168)), P80244 | purified B. subtilis ClpP, FRET peptide cleavage, 20 min | Potency, µM (series often up to 57.5 µM), inactives show top-dose activity change, negative = active | 340,000 tested, 1.9% active | AID 651965, 2013; active = well fitted falling curve with a large enough effect; inconclusive = small, poorly fitted or top-dose-only effect; inactive = no such curve, though single readings can be large or run the other way; further: potency means the concentration at half of the fitted maximal effect; the source files actives as falling curves though it sought activators and does not explain the sign; nearly all actives have a fitted effect of over 65% in size; many hits overshoot -100%
Target sequence (P80244 whole entry, looked up): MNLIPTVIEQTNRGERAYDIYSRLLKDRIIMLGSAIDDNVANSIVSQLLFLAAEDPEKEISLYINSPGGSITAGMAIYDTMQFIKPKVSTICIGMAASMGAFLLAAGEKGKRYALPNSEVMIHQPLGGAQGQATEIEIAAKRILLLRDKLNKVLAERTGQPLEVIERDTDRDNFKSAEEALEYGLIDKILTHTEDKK
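Buffer: 100 mM Tris/HCl pH8, 100 mM KCl, 0.05% low protease BSA, 2.5% glycerol, 0.01% Tween-20. ClpP 10 microg/mL final; 20 min RT; delta FRET normalized to ADEP and DMSO controls.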
gsp ag: agonists of gsp mutant (McCune-Albright syndrome) | gsp mutant cells, cAMP HTRF, 30 min; control for the full effect not named in the record | Potency, µM (titrated, usually from 76.9 µM), for inactives: top-dose activation (cAMP increase), hits mostly activators | 340,000 tested, 0.13% active | AID 624287; active = well fitted activation curve with a large enough effect; inconclusive = small, poorly fitted or top-dose-only effect, or another doubt; inactive = no such curve, though single readings can be large or run the other way; cell line not stated here;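 further: phosphodiesterase inhibitor Ro 20-1724 added with compounds to block cAMP breakdown; potency means the concentration at half of the fitted maximal effect; nearly all actives have a fitted effect of over 60% in size; about a fifth of the inactives were tested at one dose only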
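Cells in DMEM/10% FBS with G418 were pretreated with compounds in DMSO plus […] (300 uM stock) for 30 min at 37C. cAMP was measured by HTRF (cAMP-d2 plus anti-cAMP antibody-K) after 30 min at room temperature.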
Menin MLL FP FL: menin-MLL binding inhibition, fluorescein peptide. 290,000 tested, under 10 active. FP activity change, % at 61.4 µM. Fluorescence polarization, fluorescein-MLL peptide displacement from menin; inconclusive = falling polarisation curve, or a change in total fluorescence; inactive = total fluorescence flat and polarisation flat or rising; no compound was filed as active; the % refers to the polarisation; negative = inhibition;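 further: % of control where 0% means no effect; inhibitors lower the polarisation; unlabelled MLL peptide was the positive control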
* = called active by the depositor; ? = inconclusive; · = no result given; & = joins results of further samples; [ ] = dose if it differs, or a comment.

Values run as follows: gsp ag | TRPML1 blocker | ClpP mod | Menin MLL FP FL | Sfp inh | gsp antag | TRPV1 potentiator
> COc1ccc(NS(=O)(=O)c2ccc(N3CCCC3)c(NC(=S)Nc3cccc(S(=O)(=O)N(C)C)c3)c2)cc1
  · | · | · | -0.1 | 4µM* | · | 15
> CCN(CC)S(=O)(=O)c1ccc2oc(SCc3ccc(F)cc3)nc2c1
  -20% | 59 | 0.9% | 0.7 | 15% | -8% | 18
> Cc1oc(-c2ccccc2F)nc1CS(=O)(=O)CC(=O)NCc1ccco1
  ? | -6 | -4.3% | -0.1 | -8% | -9% | 0
> CC(C)C[C@@H](CNCC(=O)[C@H](C)NC(=O)c1[nH]cnc1C(=O)N[C@H](CN)CC(C)C)NC(=O)c1nc[nH]c1C(=O)N[C@@H](C)C(=O)O
  · | 22 | -0.3% | · | · | 10% | ·
> O=C(CC(=O)Nc1cccc(Cl)c1)N/N=C\c1ccccc1
  -10% | 24 | 0.8% | 1.2 | 13% | 8% | 20
> O=C(Nc1ccccc1Br)c1cc(=O)c2ccccc2o1
  22% | 10 | · | 3.2 | -2% | -16% | -13
> CCN(c1ccccc1)S(=O)(=O)c1cc(C(=O)OC(C)C(=O)Nc2ccc3c(c2)OCCO3)ccc1C (stereo not given)
  -5% | -24 | -7.9% | -1.2 | 17% | -4% | -1
> CCCCCCN1C=C/C(=C\C=C(C#N)C#N)c2ccccc21
  20% | 37 | 0.2% | ? | 5% | -7% | -9
> Cc1ccc(OCC(=O)N2CCC(N3CC(C)CC(C)C3)CC2)cc1 (stereo not given)
  -29% | -8 | -1.8% | · | 5% | 11% | 15
> O=c1c(CN2CCN(Cc3ccccc3)CC2)coc2ccc(Cl)cc12
  8% | 1 | -0.9% | 4.6 | -3% | 9% | 5
> CCCCc1ccc(NC=C2C(=O)OC3(CCCCC3)OC2=O)cc1
  0% | 1 | 325% | 5.1 | 11% | -23% | -15
> S=c1[nH]nc(-c2ccc3ccccc3n2)n1-c1cc(Cl)cc(Cl)c1
  ? | -5 | -3.1% | 0.4 | -23% | -5% | -7
> C#CCOCCOCCOCCNc1nc(N2CCN(C(=O)[C@H](CCCCN)n3cc(CC(C)O)nn3)CC2)nc(N2CCN(C(=O)[C@H](Cc3ccc(O)cc3)n3cc(CCO)nn3)CC2)n1 (stereo not given in full)
  · | 7 | -1.3% | · | · | 7% | ·
> Cc1ccc(-c2n[nH]c(=O)c3ccccc23)cc1S(=O)(=O)NC(C)(C)C
  -29% | 42 | · | -0.7 | 15% | 4% | -4
> O=C(Nc1ccc(F)cc1)C1C(c2ccccc2)C1(Cl)Cl (stereo not given)
  -2% | -6 | -1.4% | 1.9 | 0% | -21% | -22
> CN1CCc2c(sc3c2C(=O)NC(c2ccco2)N3)C1 (stereo not given)
  -7% | -4 | 28µM* | ? | -9% | -6% | 4
> COc1cccc(N=C(N)N)c1
  26% | 9 | 0.0% | -1.3 | 18% | 8% | 28
> CCOC(=O)C1CCN(C(=O)Cn2nc(C)n3c(cc4cc(C)ccc43)c2=O)CC1
  ? | -15&-8 | ? | 1.1 | 5% | 3% | -9
> O=C(COc1ccc(-n2cnnn2)cc1)Nc1ccccc1Cl
  -11% | -6 | · | 0.3 | -7% | 8% | 0
> CCOc1ccc(N2C(=O)CC(NCC3CCCO3)C2=O)cc1 (stereo not given)
  -3%[15.4 µM] | -13 | · | -0.1 | 23% | · | 7

Part of the list above in order of molecular weight, falling:
Values run as follows: gsp ag | TRPML1 blocker | ClpP mod | Menin MLL FP FL | Sfp inh | gsp antag | TRPV1 potentiator
> CCN(c1ccccc1)S(=O)(=O)c1cc(C(=O)OC(C)C(=O)Nc2ccc3c(c2)OCCO3)ccc1C (stereo not given)
  -5% | -24 | -7.9% | -1.2 | 17% | -4% | -1
> CCOC(=O)C1CCN(C(=O)Cn2nc(C)n3c(cc4cc(C)ccc43)c2=O)CC1
  ? | -15&-8 | ? | 1.1 | 5% | 3% | -9
> Cc1oc(-c2ccccc2F)nc1CS(=O)(=O)CC(=O)NCc1ccco1
  ? | -6 | -4.3% | -0.1 | -8% | -9% | 0
> COc1cccc(N=C(N)N)c1
  26% | 9 | 0.0% | -1.3 | 18% | 8% | 28

Next section.
Values run as follows: gsp ag | TRPML1 blocker | ClpP mod | Menin MLL FP FL | Sfp inh | gsp antag | TRPV1 potentiator
> CCC(C)C(NC(=O)C(C)NC(=O)CNC(=O)CNC(=O)OCc1ccccc1)C(=O)OC (stereo not given)
  -12% | 11 | 0.4% | -0.9 | 20% | 3% | 11
> CCCN(Cc1ccccc1)S(=O)(=O)c1ccc(N2C(=O)CCC2=O)cc1
  -2% | -1 | -1.3% | 0.1 | -3% | -14% | ?
> CCc1ccc(NC(=O)C2CCN(S(=O)(=O)c3cnc[nH]3)CC2)cc1
  -15% | 20 | -1.8% | 3.7 | 2% | 12% | 8
> COc1ccc(OCC(=O)NNC(=O)c2nn(C)c(=O)c3ccccc23)cc1
  -46%[inhibitor] | -2 | 15% | · | 3% | -8% | 6
> Cc1cc(C(=O)OCC(=O)NCc2cccs2)c2ccccc2n1
  -12%[15.4 µM] | -4 | · | 0.0 | 8% | -18% | -11
> Cc1ccsc1C(=O)NNC(=O)c1ccc(NS(=O)(=O)c2cccs2)cc1
  -58%[inhibitor] | 0 | -2.6% | · | · | 11µM* | -7
> Cc1cc(C)cc(N(C(C)C(=O)N2CCCC2)S(C)(=O)=O)c1 (stereo not given)
  -5%[15.4 µM] | 12 | 1.4% | -6.5 | 25% | -6% | -18
> O=C(Nc1ccnn1C1CCN(Cc2ccc(CO)o2)CC1)c1ccccc1Cl
  -7% | 1 | -2.2% | 1.8 | 8% | 11% | 6
> COc1ccc(CCN2C(=O)C(O)=C(C(=O)c3ccco3)C2c2cccs2)cc1OC (stereo not given)
  18µM* | -2 | 0.8% | 2.4 | -4% | 32% | ·
> Cc1ccc(S(=O)(=O)NCC2CCCO2)cc1[N+](=O)[O-] (stereo not given)
  24% | -30 | -4.8% | 2.7 | 5% | 22% | -4
> COc1cccc(CNC(=O)COC(=O)/C=C/c2ccc(SC)cc2)c1
  ? | 17 | 3.3% | · | · | 0% | ·
> Cc1cc(C)n(-c2ccc(Cl)c(Cl)c2)n1
  2% | -10 | · | 0.6 | -9% | 5% | -14
> O=C(c1cc(-c2cccc(Cl)c2)nc2ccccc12)N1CCCC1
  -14% | 3 | -3.6% | 5.3 | -1% | -18% | 3
> Cc1ccc(NC(=O)[C@H](Cc2c[nH]c3ccccc23)NC(=O)[C@@H]2Cc3ccccc3CN2)c(C)c1
  -39%[inhibitor] | 14 | 0.7% | 1.3 | -10% | -9% | 1
> CN(c1ccccc1)S(=O)(=O)c1nnc(NC(=O)COc2ccccc2F)s1
  -40%[inhibitor] | 11 | -1.2% | · | 2% | -30% | 8
> O=C(CN1CCC(c2nc3ccccc3[nH]2)CC1)NCc1ccc2c(c1)OCO2
  -6% | 19 | -2.0% | -0.8 | 11% | -4% | 0
> Cn1c(N)c(C(=O)COC(=O)CCC(=O)c2cccs2)c(=O)n(C)c1=O
  ? | 3 | -4.9% | 1.9 | 15% | 7% | 16
> CN(CCC#N)C(=O)COC(=O)c1ccc2[nH]c3c(c2c1)CCCC3
  -3% | 14 | · | -1.1 | -3% | -5% | ?
> CCC1(CC)NC(=O)N(CC(=O)OCC(=O)Nc2sccc2C#N)C1=O
  -1% | 5 | -4.2% | ? | 12% | 12% | 13
> Clc1ccc2c(N3CCOCC3)ccnc2c1
  1%[15.4 µM] | 2 | 0.0% | -1.8 | 12% | -1% | 4
> CC(C)Cn1cc(C(=O)NCC2CCCO2)c2c3ccccc3n(C)c2c1=O (stereo not given)
  11% | -11 | 16µM* | -1.5 | ? | -5% | 21
> CCOc1ccc(CC(C(N)=O)C(N)=O)cc1
  29% | 8 | · | -4.7 | 0% | 5% | 6
> Cc1ccc(S(=O)(=O)N(CC(=O)NCc2ccco2)c2ccccc2C)cc1
  32% | 1 | · | · | -2% | -2% | -15
> O=C(NCc1ccco1)c1sc2cc(F)ccc2c1Cl
  -21% | -6 | -13% | -2.1 | -15% | 5% | 1
> Cc1cnc(C(=O)NCc2ccc(Cl)cc2Cl)cn1
  -6%[15.4 µM] | -3 | · | 1.8 | 14% | 8% | -17
> CC(=O)Nc1ccc(C2=NNC(=NCC3CCCO3)SC2)cc1 (stereo not given)
  -34%[inhibitor] | 18 | -27% | 1.1 | 40µM* | 7% | 5

Entries above containing an aryl thioether with sulfur outside any ring (2):
Values run as follows: gsp ag | TRPML1 blocker | ClpP mod | Menin MLL FP FL | Sfp inh | gsp antag | TRPV1 potentiator
> CCN(CC)S(=O)(=O)c1ccc2oc(SCc3ccc(F)cc3)nc2c1
  -20% | 59 | 0.9% | 0.7 | 15% | -8% | 18
> COc1cccc(CNC(=O)COC(=O)/C=C/c2ccc(SC)cc2)c1
  ? | 17 | 3.3% | · | · | 0% | ·
